Source: PubChem BioAssay
StopGo FLuc – Primary qHTS Assay for Foot and Mouth Disease Virus Antivirals against NCGC Sytravon and CBC Compound Libraries: Firefly Luciferase Signal; HEK cells with a luciferase reporter of 2A StopGo recoding; Potency, µM (titrated, usually from 57.5 µM), for the others: at the top dose signal change, negative = less light; 0.23% of 120,000 active; AID 1745856, 2022; active = well fitted falling curve with a large enough effect; inconclusive = small, poorly fitted or top-dose-only effect; inactive = no such curve, though single readings can be large or run the other way; further: nearly all actives have a fitted effect of over 60% in size; overnight with compound
StopGo RLuc – Primary qHTS Assay for Foot and Mouth Disease Virus Antivirals against NCGC Sytravon and CBC Compound Libraries: Renilla Luciferase Signal. 0.32% of 120,000 active. HEK cells with a luciferase reporter of 2A StopGo recoding. Potency, µM (titrated, usually from 57.5 µM), for inactives: at the top dose signal change, negative = less light; active means well fitted falling curve with a large enough effect; inconclusive means small, poorly fitted or top-dose-only effect; inactive means no such curve, though single readings can be large or run the other way; further: nearly all actives have a fitted effect of over 55% in size; overnight with compound
* marks the source's active call; other numbers are inactive results; ? = inconclusive; [ ] = dose if it differs, or a comment. On the % scale 0 is the no-effect control and ±100 the full control effect; potency means the concentration at half of the fitted maximal effect. Only part of the results is shown (hit frequency here may not be typical).

SMILES	StopGo FLuc	StopGo RLuc
O=C(COc1ccccc1Cl)N1CCC(c2nc3ccccc3o2)CC1	7%	-1%
COc1ccc(C2SCC(=O)N2c2ccc(Cl)cc2)cc1 (centres undefined)	5%	-8%
Cc1c(C(=O)Nc2ccc(F)cc2)oc2ccc(S(=O)(=O)N3CCCCCC3)cc12	?	?
O=C(CCc1c[nH]c2ccccc12)Nc1ccccc1OCC(F)(F)F	0%	11%
Cc1occc1-c1nnc(SCC(=O)c2ccc3c(c2)NC(=O)CO3)o1	6%	-5%
Cc1cccc(-n2c(Cc3cc(=O)[nH]c(=O)[nH]3)nnc2SCC(=O)c2ccc(Cl)cc2)c1	-9%	-15%
CC(C)(C)C1CCc2c(sc(NC(=O)CCC(=O)O)c2C(=O)Nc2ccccc2C(F)(F)F)C1 (centres undefined)	-20%	-8%
Cc1cccc(-c2nn3c(N(C)C)cc(C)nc3c2C)c1	4%	-5%
Cc1cc(C)c(OCC(=O)Nc2ccc(NC(=O)c3ccco3)cc2)c(Br)c1	0%	12%
COCCNc1nc2c(c(=O)n(C)c(=O)n2C)n1Cc1cccc(Br)c1	?	?
COc1ccc(-c2nnc(C(C)N(C)Cc3ccccc3)o2)cc1 (centres undefined)	106%[activator]	16%
O=C(NC1CC(=O)N(c2ccc(Cl)cc2)C1)C(=O)c1c[nH]c2ccccc12 (centres undefined)	-9%	-9%
CN1Cc2nnn(Cc3ccccc3)c2-c2cc(F)ccc2S1(=O)=O	5%	46%[activator]
CN(C(=O)CSc1nc2ccc(NC(=O)COc3ccccc3)cc2s1)c1ccccc1	?	?
COc1ccc(Nc2ncc(C(=O)N3CCN(c4ccc(OC)cc4)CC3)c3ccccc23)cc1	?	-15%
O=C(Cn1ccc2ccc(Cl)cc21)Nc1ccc2[nH]ccc2c1	16%	104%[activator]
O=C(CSc1nc2ccccc2c2nc(-c3ccccc3)nn12)Nc1ccc(F)cc1	-15%	-9%
Cc1nc(NC2CCCCC2)sc1C(=O)Nc1ccccc1	180%[activator]	12%
COc1cccc(C(=O)COC(=O)c2cc(-c3cccs3)nc3ccccc23)c1	2%	0%
CC(C)C(NC(=O)C(c1ccccc1)c1ccccc1)C(=O)O (centres undefined)	0%	0%
C[n+]1ccccc1/C=N/O	13%[11.5 µM]	-10%
COc1ccc(-c2cc(C(=O)NCc3ccccc3)c3c(-c4ccccc4)[nH]nc3n2)cc1	33%[activator]	-14%
CCCOc1nc2ccccc2nc1N1CCC(C(=O)NCc2ccccc2Cl)CC1	2%	1%
Cc1cccc(C)c1NC(=O)c1oc2ccc3c(c2c1C)C(=O)CC(C)(C)O3	45%[activator]	3%
COC(=O)C1=C(C)NC(=O)CC1C(=O)Nc1cc(Cl)cc(Cl)c1 (centres undefined)	4%	-14%
COc1ccccc1CNCCSc1nnnn1C	-18%	-10%
COc1cccc(CN2c3ccccc3C3=C(C(c4ccccc4)C(C#N)=C(N)O3)S2(=O)=O)c1 (centres undefined)	10%	21%
CC(C)c1ccc(NC(=O)C2CCCN(c3cnc4ccccc4n3)C2)cc1 (centres undefined)	0%	22%
COc1ccc(-c2nc(C)c(CCNC(=O)C(=O)Nc3ccccc3C#N)s2)cc1OC	12%	5%
O=C(CCn1c(=O)c2sccc2n(CC(=O)N2CCCC2)c1=O)Nc1ccc(F)cc1	-9%	-12%
COc1ccc(Cl)cc1-c1nc(SCC(=O)N2CCCC2)n[nH]1	39%[activator]	24%
CCCCSc1oc(-c2ccco2)nc1S(=O)(=O)c1ccc(F)cc1	13%	39%[activator]
CCOC(=O)c1cnn(-c2ccc(C(=O)Nc3ccc(C(C)=O)cc3)cc2)c1N	11%	-7%
Cc1ccc(C2=NN(CC(=O)NCCCN(CC(C)C)CC(C)C)C(=O)CC2)cc1	-19%	-18%
COC(=O)c1ccc2cc(C(=O)O)ccc2c1	63%[activator]	-6%
CC(C)C(=O)Nc1ccccc1C(=O)OCc1cc(=O)n2nc(C3CC3)sc2n1	-4%	5%
CCOCCCNCc1c(F)cccc1Cl	-2%	6%
O=C(O)CCCC(=O)N1CCC(Cc2ccccc2)CC1	4%	4%
Cc1cccc(/C=C2\Cc3ccccc3C2=O)c1	168%[activator]	1%
COc1ccc2oc(=O)c(-c3csc(Nc4cc(Cl)ccc4OC)n3)cc2c1	-4%	-10%
COc1ccc(CNC(=O)C2CCN(S(=O)(=O)c3cn(C)cn3)CC2)cc1	-9%	-3%
O=C(NCCC1=CCCCC1)c1ccc2c(c1)N(Cc1ccc(F)cc1)C(=O)c1ccccc1S2(=O)=O	11%	-3%
O=C1CC(C(=O)Nc2ccc(Cl)cc2Cl)n2nc(-c3ccccc3)cc2N1 (centres undefined)	134%[activator]	3%
COc1ccccc1N1CCN(C(CNC(=O)C(=O)NCc2cccnc2)c2cccnc2)CC1 (centres undefined)	-11%	-22%
CN1CCN(C(c2ccccc2Cl)c2sc3nc(-c4ccco4)nn3c2O)CC1 (centres undefined)	5%	0%
CCN(Cc1ccccc1)C(=O)Cn1c(=O)n(-c2ccc(Cl)c(Cl)c2)c(=O)c2c(C)c(C(=O)N(C)C)sc21	-16%	-8%
COc1ccc(-c2coc3cc(OCC(=O)NCCC4=CCCCC4)ccc3c2=O)cc1OC	2%	-3%
C/C=C/C=C/C(=O)N1CCN(CC(F)(F)F)CC1	7%	-9%
CCc1ccc(S(=O)(=O)c2nnn3c2nc(Nc2ccc(F)cc2)c2cc(Cl)ccc23)cc1	-5%	1%
Cc1ccccc1Cn1c(=O)n(Cc2ccc3c(c2)OCO3)c(=O)c2oc3ccccc3c21	-8%	-8%
COc1ccc(CCCc2nnc(SCC(=O)Nc3cccc(C)c3)o2)cc1C	15%	5%
Cc1ccc(-n2c(=O)c3c(cnn3C)n(CC(=O)Nc3ccc(C)cc3C)c2=O)cc1	-5%	-4%
CC(C)OC(=O)c1c(NC(=O)COc2cccc(Br)c2)sc2c1CCCC2	-10%	-4%
CCOC(=O)C1(c2ccccc2)CCN(CCC(C#N)(c2ccccc2)c2ccccc2)CC1	4%[11.5 µM]	?
COc1ccc2c(c1)c(N1CCCC1=O)c(C(=O)Nc1ccccc1C(F)(F)F)n2C	39%[activator]	53%[activator]
CCOC(=O)c1cnc2ccccc2c1NCCc1ccc(OC)c(OC)c1	-18%	-1%
O=C(NCc1ccccc1F)C(=O)NCC(c1cccs1)S(=O)(=O)c1cccs1 (centres undefined)	-20%	4%
CCc1cccc(CC)c1NC(=O)C(C)Sc1ccccc1 (centres undefined)	1%	13%
Cc1cc2c(cc1S(=O)(=O)N1CCC(C)CC1)OCC(=O)N2	-3%	0%
Cc1ccc(C)c(NC(=O)CN2C(=O)CN=C(c3ccc(F)cc3)c3c2sc(C)c3C)c1	-2%	8%

Additional compounds follow:
SMILES	StopGo FLuc	StopGo RLuc
CCOc1ccccc1CNC(=O)C1CCN(S(=O)(=O)c2c(C)noc2/C=C/c2ccccc2F)CC1	-21%	4%
Cc1cccc(N2CCN(C(=O)c3ccc(NC(=O)c4nsc5ccccc45)cc3)CC2)c1C	-6%	-9%
Cc1cccc(-n2c(SCC(=O)Nc3ccccc3Cl)nc3n[nH]c(C)c3c2=N)c1	-24%	45%[activator]
COc1cc(NC(=O)COC(=O)c2ccccc2SCc2c(C)noc2C)cc(OC)c1	23%	8%
CCOC(=O)CC(NC(=O)c1cc2cc(Cl)cc(Cl)c2oc1=O)c1ccc(OC)cc1 (centres undefined)	7%	25%
Cc1oc2ccc(OC(=O)c3ccccc3F)cc2c1C(=O)OC(C)C	7%	5%
FC(F)(F)c1ccccc1/C=N/NC(=S)NCc1ccccc1	11%	119%[activator]
Cc1ccc(-n2c(=O)c3c(cnn3C)n(CC(=O)Nc3cccc(Cl)c3)c2=O)cc1	-18%	11%
CCNC(=O)NC(=O)C(C)Sc1nc(NCC)c2ccccc2n1 (centres undefined)	8%	-2%
C#CCN1CCC(C(=O)N(C)Cc2ccc(Br)o2)CC1	2%	15%
CC(=O)c1ccc(C(C)(C)C)cc1	0%	0%
CCN(CC)CCCNC(=O)CCNc1nc(Cl)nc2nc[nH]c12	5%	1%
Cc1c(Cl)cccc1NC(=O)c1ccc2c(c1)CCCN2S(C)(=O)=O	41%[activator]	-10%
CC(=O)c1ccc(N2CCN(S(=O)(=O)c3ccc(-c4cc(C)no4)s3)CC2)cc1	-12%	-11%
CC(=O)c1cccc(NC(=O)CCc2nc3cccnc3n2Cc2cccs2)c1	-20%	-5%
CCOc1ccc(C(=O)/C=C/c2cn(CC(O)CN3CCCCCC3)c3ccccc23)cc1 (centres undefined)	-20%	-18%
Cc1ccc(C(=O)COC(=O)C(CC(C)C)NC(=O)C2CCC(C)CC2)cc1 (centres undefined)	-15%	-14%
Cc1ccc(C)c(NCc2cc3cccc(C)c3[nH]c2=O)c1	-3%	-4%
O=C(OCC(=O)c1ccc[nH]1)c1ccc(S(=O)(=O)Nc2ccccc2)cc1	1%	-4%
Cc1cccc(-c2noc(-c3cccc(Br)c3)n2)c1	22%	23%

An excerpt from above in order of SMILES length, largest number first.
SMILES	StopGo FLuc	StopGo RLuc
Cc1c(Cl)cccc1NC(=O)c1ccc2c(c1)CCCN2S(C)(=O)=O	41%[activator]	-10%
Cc1oc2ccc(OC(=O)c3ccccc3F)cc2c1C(=O)OC(C)C	7%	5%
C#CCN1CCC(C(=O)N(C)Cc2ccc(Br)o2)CC1	2%	15%
CC(=O)c1ccc(C(C)(C)C)cc1	0%	0%

The results go on.
SMILES	StopGo FLuc	StopGo RLuc
CCc1ccc2oc(C(=O)Nc3ccc(NC(C)=O)cc3)cc(=O)c2c1	3%	-5%
COc1cc(C)cc2oc(=O)c(CC(=O)NCc3ccco3)c(C)c12	28%	73%[activator]
C[N+](C)(CC(=O)O)C[Si](C)(C)C	10%	13%
CCOC(=O)c1c(-c2ccccc2)csc1NC(=O)c1cc(-c2ccc(Br)cc2)on1	-15%	-13%
Cc1cccc(Cn2cc(CN3CC(N(C)CCOC(=O)c4cc(C)cc(C)c4)CS3(=O)=O)nn2)c1 (centres undefined)	5%	-1%
COc1ccc(OC)c(NC(=O)COC(=O)c2cnc(C)cn2)c1	-8%	-9%
Cc1c(CCC(=O)NC2Cc3ccccc3C2)c(=O)oc2cc(O)ccc12	189%[activator]	163%[activator]
CCn1nnc2cc(C(=O)Nc3nc(-c4ccc(C)c(C)c4)cs3)ccc21	?	?
Cc1nc(-n2nc(C)c(CCC(C)C)c2C)sc1C(=O)Nc1ccc(Cl)cc1	27%	36%[activator]
N#Cc1ccc(Cn2c(CN3CCCCC3)nc3scc(-c4cccs4)c3c2=O)cc1	2%	4%
Cn1nc(C(=O)OCC(=O)c2ccc(Br)cc2)c2ccccc2c1=O	0%	-3%
COc1ccccc1CNC(=O)c1cc2c(=O)n(Cc3cccs3)ccc2nc1C	?	-5%
O=C(Nc1ccc(OC(F)(F)F)cc1)C1CCCN1S(=O)(=O)c1cccc2nsnc12 (centres undefined)	?	?
CCOc1ccccc1Oc1ccc(CNC(=O)Nc2cccnc2)cn1	14%	-16%
COc1ccccc1CNS(=O)(=O)c1ccc(N2C(=O)C(C)CS2(=O)=O)cc1 (centres undefined)	3%	11%
Cc1nc(N2CCOCC2)c2c(C(=O)NCc3ccc(Cl)cc3)c(C)oc2n1	-13%	2%
CCCCCCCCOc1ccc(C(=O)c2ccccc2)c(O)c1	-14%[11.5 µM]	-6%
Cc1cccc(NC(=O)C2CCCN(S(=O)(=O)c3c(C)noc3/C=C/N(C)C)C2)c1C (centres undefined)	-14%	-11%
O=c1c(N2CCCCC2)csc2ccc(F)cc12	34%[activator]	79%[activator]
Cn1c(=O)[nH]c(=O)c2c1nc(SCC(=O)Nc1ccccc1)n2Cc1cccc(Cl)c1	-3%	2%

Overlap with the part before: three entries; new compounds follow.
SMILES	StopGo FLuc	StopGo RLuc
Cc1cccc(NC(=O)C2CCCN(S(=O)(=O)c3c(C)noc3/C=C/N(C)C)C2)c1C (centres undefined)	-14%	-11%
O=c1c(N2CCCCC2)csc2ccc(F)cc12	34%[activator]	79%[activator]
Cn1c(=O)[nH]c(=O)c2c1nc(SCC(=O)Nc1ccccc1)n2Cc1cccc(Cl)c1	-3%	2%
COc1cc(NC(=O)c2cc(C3CC3)nc3c2c(C)nn3-c2ccc(C)cc2)cc(OC)c1	21%	-11%
CC(C)(C)C1CCc2sc(C(=O)NCc3cnc(-c4ccccc4)s3)cc2C1 (centres undefined)	14%	3%
COc1ccc(S(=O)(=O)Nc2c(C)n(C)n(-c3ccccc3)c2=O)cc1Br	-14%	-8%
O=C(Oc1cccc(OC(=O)c2ccc(Cl)cc2Cl)c1)c1ccc(Cl)cc1Cl	-2%	0%
Cc1ncc(-c2ccc(S(=O)(=O)Nc3ccc(C)c(F)c3)cc2)o1	-7%	284%[activator]
O=C(OCCN1CCOCC1)c1cccnc1Nc1cccc(C(F)(F)F)c1	-2%[11.5 µM]	-9%
O=C(NC1CCCCC1)c1cc(-c2ccccc2)nc2ccccc12	6%	23%
CCCc1noc(CSc2nc3sc(C)c(C)c3c(=O)n2CCOC)n1	29%	20%
Oc1ccccc1Oc1ccc2nnc(-c3ccc(Br)cc3)n2n1	-8%	-10%
COc1cc(OC)cc(C(=O)Nc2ncc3c(n2)CC(c2ccco2)CC3=O)c1 (centres undefined)	9%	-4%
O=C(Nc1ccccc1F)c1ccc(-c2ccccc2)s1	202%[activator]	-13%
CNc1c(NC(=O)Nc2ccccc2C(F)(F)F)c(=O)oc2ccccc12	3%	-3%
Cc1ccc(CN(C)C(=O)COc2ccc3ccc(=O)oc3c2)cc1	79%[activator]	1%
CC(=O)c1csc(NC(=O)Cn2ccc(=O)n(C)c2=O)n1	1%	-7%
